Bioassay records: PubChem, National Center for Advancing Translational Sciences (NCATS)
miR-21 FLuc = raises the signal of a miR-21 reporter; 340,000 tested, under 10 active; Potency, µM (highest dose often 38.3 µM), without a hit: at the top dose reporter change, positive = more light; HeLa miR-21 FLuc reporter, luciferase, 48 h; active = well fitted rising curve with a large enough effect; inconclusive = small, poorly fitted or top-dose-only effect; inactive = no such curve, though single readings can be large or run the other way;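 note: % of control where 0% means no effect; miR-21 action dims this reporter so a rising signal means less miR-21 action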
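HeLa miR-21-FLuc reporter line, endogenous miR-21; 2000 cells/well in DMEM/10% FBS; compound titration up to ~40uM final, 48 h, 37 degree Celsius; luciferase detection reagent, 15 min lysis, CCD luminescence.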
Rango-impB inh = Rango-importin beta binding inhibition. Potency, µM (doses to about 92.2 µM), inactives show top-dose inhibition of complex formation. Q14974. Rango CFP/YFP FRET sensor + importin beta, 45 min. hit rate 0.031% among 340,000; active = rising FRET ratio curve, often small or poorly fitted; inconclusive = mostly compound fluorescence or quenching in the first reads; inactive = flat curves in all reads;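 note: potency is the fitted concentration of half-maximal effect; 0% = DMSO wells and 100% = buffer wells lacking importin beta; nearly all actives have a fitted effect of over 15% in size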
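Inhibition scored from the CFP 486 nm/YFP 530 nm FRET ratio 45 min after adding 0.125 microM importin beta to 50 nM Rango biosensor preincubated 5 min with compound (room temperature, PBS with DTT, Tween-20, BSA). No-importin wells as positive control.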
GLA inh pH 4.5 = inhibitors of human alpha-galactosidase A at pH 4.5; activity change, negative = inhibition, % at 105 µM; P06280; purified enzyme, 4-MU-alpha-Gal fluorescence, pH 4.5; AID 1467; 230,000 tested, under 10 active; inconclusive = small, poorly fitted or top-dose-only inhibition, or a rising curve; inactive = flat fitted curve, though single readings scatter; no compound was filed as active;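 note: 0% = full activity with enzyme and -100% = basal without enzyme; dose as in the result columns while the protocol names 77 µM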
Target sequence (P06280 whole entry, looked up): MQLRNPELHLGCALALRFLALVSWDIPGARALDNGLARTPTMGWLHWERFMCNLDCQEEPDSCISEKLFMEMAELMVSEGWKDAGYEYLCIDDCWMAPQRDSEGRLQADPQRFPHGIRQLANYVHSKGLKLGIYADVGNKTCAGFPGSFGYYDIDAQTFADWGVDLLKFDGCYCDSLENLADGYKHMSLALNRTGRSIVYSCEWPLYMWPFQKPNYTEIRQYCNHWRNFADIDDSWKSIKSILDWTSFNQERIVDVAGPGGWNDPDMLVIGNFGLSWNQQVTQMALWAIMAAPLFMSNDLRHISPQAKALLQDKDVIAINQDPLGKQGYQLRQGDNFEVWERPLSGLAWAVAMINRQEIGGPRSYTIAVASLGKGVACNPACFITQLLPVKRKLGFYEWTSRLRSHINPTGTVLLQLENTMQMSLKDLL
Rango release inh = prevents RanGTP from dissociating the Rango-importin beta complex; O95149+P62826; Biochemical FRET Rango-importin beta, RanGTP-induced dissociation; Potency, µM (titrated, usually from 46.1 µM), without a hit: top-dose activity change, negative = inhibition; hit rate 0.071% among 340,000; active means falling FRET ratio curve, often poorly fitted, with flat reads before Ran was added; inconclusive means other falling curves, or compound fluorescence or quenching; inactive means flat or rising ratio curve;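 note: potency is the fitted concentration of half-maximal effect; % of control where 0% means no effect; nearly all actives have a fitted effect of over 45% in size; -100% = wells without RanGTP and RCC1; the record marks most hits as doubtful in a second field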
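Rango FRET biosensor (snurportin-1 IBB flanked by N-terminal EYFP and C-terminal CFP10) at 0.1 uM, with 0.25 uM importin beta in PBS, 1mM DTT, 0.02% Tween-20, 0.1% BSA. 0.6 uM Ran, 2mM GTP and 0.2 uM RCC1 were then added for 45 min at room temperature. Inhibition read as loss of FRET rise.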
* hit, by the source's call; ? = inconclusive; . = no result given; & = joins results of further samples; [ ] = remark or other dose.

miR-21 FLuc	Rango release inh	GLA inh pH 4.5	Molecule	Rango-impB inh
0%	8%	6	CCC/C(O)=C1\C(=O)CC(c2ccccc2)CC1=NC(C)C(=O)O (stereo not drawn)	-0.2%
-10%	?	-6	N#C/C(=C(O)\C=C\c1ccccc1)c1nc2ccccc2[nH]1	?
.	26%	.	C[C@H]1CN([C@@H](C)CO)C(=O)c2cc(NC(=O)C3CCCCC3)ccc2O[C@H]1CN(C)C(=O)Nc1ccc2c(c1)OCO2	4.4%
28%	18%	.	CCCCCCCCCCOC(=O)Cn1c(COc2cccc(C)c2)[n+](C)c2ccccc21	3.7%
-10%	?	5	Cc1ccc(NC(=O)COC(=O)c2sccc2C)cc1S(=O)(=O)N1CCOCC1	-0.8%
2%	0%	-10[21.1 µM]	Cc1ccc(NC(=S)NCC2CCN(C(C)c3ccccc3)C2)cc1 (stereo not drawn)	0.2%
-6%	-6%	5	CCCn1c(SCC(=O)Nc2nc3ccccc3s2)nc2c1c(=O)n(C)c(=O)n2C	1.9%
-28%	-4%	-22	COc1ccc2cc(CCNC(=O)C3CC3)c(=O)[nH]c2c1	3.6%
.	1%	.	Cc1ccc(NC(=O)C(C)Sc2nnc(C)n2C2CC2)cc1S(=O)(=O)N1CCOCC1 (stereo not drawn)	-2.9%
-10%	11%	4	Cn1c(SCc2cccc(C(F)(F)F)c2)nnc1-c1ccco1	-0.7%
16%	2%	.	COCCNC(=S)N1CCN(c2nc(-c3cccc(OC)c3)cs2)CC1	3.5%
-5%	16%	-7	O=C(Nc1ccc(Cl)c(Cl)c1)N(Cc1cccnc1)Cc1ccco1	0.3%
-1%	11%	-9	CN1CCN(C(=O)CN(CCc2ccccc2)S(C)(=O)=O)CC1	-2.4%
-5%	-6%	0	CC(C)CN(C(=O)CSc1nnc2ccccn12)c1c(N)n(CC(C)C)c(=O)[nH]c1=O	-1.5%
11%	-15%	-8	COc1ccc(NC(=O)C2CCCN(S(=O)(=O)c3cccc4cccnc34)C2)c(OC)c1 (stereo not drawn)	1.4%
-5%	-7%	3	CC1CCCN(CCC(=O)c2ccc(Br)cc2)C1 (stereo not drawn)	-5.1%
1%	?	0	COc1ccc(Cn2c3ccc(OC)cc3c3nc4ccccc4nc32)cc1	-5.4%
2%	?	.	NC(=O)c1nsc(C(=O)N(Cc2ccc(F)cc2)C(C(=O)NCC2CCCO2)c2ccc(O)cc2)c1N (stereo not drawn)	?
1%	-1%	-3	O=C(CSc1nnc(NCc2ccccc2)s1)N1CCOCC1	0.0%
-5%	5%	2	CCN(C(=O)COC(=O)c1cc(-c2ccccc2)nc2ccc(Br)cc12)C1CCS(=O)(=O)C1 (stereo not drawn)	-4.2%
-10%	11%	.	Cc1ccc(NC(=O)CNC2CCCCC2)cc1Cl	2.3%
-1%	2%	1	COc1ccc(-c2cc(C(F)(F)F)nc(-n3ccnc3)n2)cc1	7.5%
-10%	19%	-2	O=C(COC(=O)c1ccc(O)cc1)Nc1ccc(N2CCCCC2)cc1	-3.5%
-6%	-3%	.	NS(=O)(=O)c1ccc(CCNC(=O)C2COc3ccccc3O2)cc1 (stereo not drawn)	-0.6%
3%	-16%	2	COc1ccc(C(c2nnnn2Cc2ccc(F)cc2)N2CCN(c3ccc(OC)cc3)CC2)cc1 (stereo not drawn)	0.4%
-1%	-9%	.	Cc1cccc(NC(=O)Nc2c(C)n(C)n(-c3ccccc3)c2=O)c1C	3.5%
.	?	.	CCOc1ccc(N/C=C\C(=O)c2ccc3c(c2)OCO3)cc1	?
-26%	8%	1	COc1ccc(NC(=O)c2cccnc2Sc2ccccc2)c(OC)c1	-1.2%
7%	1%	1	CCC1CCCCN1C(=O)CSc1nnc(-c2c[nH]c3ccccc23)o1 (stereo not drawn)	-4.3%
6%	-7%	.	COc1ccc(CC(NC(C)=O)C(=O)NC2CCN(S(=O)(=O)c3ccccc3)CC2)c(OC)c1 (stereo not drawn)	-1.9%
-38%	-6%	-1	CCCn1cc(NC(=O)c2cc(-c3ccccc3)on2)cn1	0.3%
-40%	1%	-10	C=CCn1c(C)cc(C(=O)Cn2nc(C(=O)O)c3ccccc3c2=O)c1C	1.5%
-43%	13%	12	CCCCC(=O)Nc1nc2ccc(C(=O)OC)cc2s1	-0.4%
-9%	-4%	-7	CCC(C)c1ccccc1NC(=O)COC(=O)c1ccc(N2CCCC2)c([N+](=O)[O-])c1 (stereo not drawn)	0.7%
-2%	-14%	.	COc1ccc(C(=O)Nc2c3c(nn2C(C)(C)C)CS(=O)(=O)C3)cc1OC	-1.2%
-1%	6%	.	COc1ccccc1N(CC(=O)NC1CCCC1)S(=O)(=O)c1ccc(C)cc1	?
-51%	20%	1	Cc1nn2cc(-c3ccc(Cl)cc3)cnc2c1Cl	1.7%
-16%	-15%	-3	C/C(=N\NC(=O)c1ccc2c(c1)OCO2)c1ccc(O)cc1	-0.9%
-15%	0%	7	O=C(Nc1ccccc1N1CCCC1)c1ccc2c(c1)OCO2	-1.0%
-1%	-3%	.	Cc1ccc(C(O)(CNCc2ccccc2)c2ccccc2)cc1 (stereo not drawn)	-1.6%
0%	8%	4	CCOC(=O)C1=C(SCC(=O)Nc2ccccc2)NC(=O)C(C#N)C12CCCCC2 (stereo not drawn)	3.7%
-19%	-5%	1	COCc1cc(C)nc(OCC(=O)N/N=C/c2ccco2)c1C#N	-0.9%
-2%	-7%	1	CCOc1cc(C)c(Cl)cc1S(=O)(=O)NCc1ccco1	0.0%
-11%	14%	-3	O=S(=O)(c1cc(Cl)ccc1Cl)N1CCNCC1	-1.1%
.	-11%	.	c1cncc(-c2ccc3ncnc(NCc4cccs4)c3c2)c1	2.6%
0%	36%	6	C/C(=N\OC(=O)c1ccc(OC(C)C)cc1)c1ccc(C)c(C)c1	2.5%
-3%	1%	.	Cc1ccc(C(=O)N/C(=C\c2ccco2)C(=O)N2CC(C)OC(C)C2)cc1C (stereo not drawn)	-2.4%
-1%	5%	-2	O=C(OCC(=O)N1CCN(C(=O)c2ccco2)CC1)c1ccc(S(=O)(=O)N2CCCCC2)cc1	2.1%
-3%	-6%	1	O=C(CSCCc1ccccn1)Nc1cccnc1	3.5%
-25%&-18%	-2%	0	Cc1ccc(CSc2ncccc2C(=O)O)cc1	-0.2%
-27%	-1%	-1	COC(=O)CCc1sc(Nc2ccc(Br)cc2)nc1-c1ccc(OC)cc1	-5.2%
7%	-9%	.	CCOc1ccccc1CN1CCC(n2nccc2NC(=O)C2CCCC2)CC1	6.5%
.	-4%	.	Cc1nn(-c2ccc(F)cc2)c(Cl)c1C(=O)NCC1CCCO1 (stereo not drawn)	-1.1%
-25%	-1%	18	CC(=O)Oc1ccc(-c2cccc(C(=O)NCCCO)c2)cc1	-1.2%
-5%	20%	.	O=[N+]([O-])c1cccc(N(CC(O)CN2CCCCC2)S(=O)(=O)c2ccccc2)c1 (stereo not drawn)	5.6%
0%	13%	-8	CCN1C(=O)/C(=C2\SC(=S)N(NC(=O)c3ccccc3O)C2=O)c2ccccc21	0.9%

Compounds listed so far that contain a furan ring, fused or not, in the order listed:
miR-21 FLuc	Rango release inh	GLA inh pH 4.5	Molecule	Rango-impB inh
-10%	11%	4	Cn1c(SCc2cccc(C(F)(F)F)c2)nnc1-c1ccco1	-0.7%
-5%	16%	-7	O=C(Nc1ccc(Cl)c(Cl)c1)N(Cc1cccnc1)Cc1ccco1	0.3%
-19%	-5%	1	COCc1cc(C)nc(OCC(=O)N/N=C/c2ccco2)c1C#N	-0.9%
-2%	-7%	1	CCOc1cc(C)c(Cl)cc1S(=O)(=O)NCc1ccco1	0.0%
-3%	1%	.	Cc1ccc(C(=O)N/C(=C\c2ccco2)C(=O)N2CC(C)OC(C)C2)cc1C (stereo not drawn)	-2.4%
-1%	5%	-2	O=C(OCC(=O)N1CCN(C(=O)c2ccco2)CC1)c1ccc(S(=O)(=O)N2CCCCC2)cc1	2.1%

(list continues)
miR-21 FLuc	Rango release inh	GLA inh pH 4.5	Molecule	Rango-impB inh
-1%	8%	.	COc1ccc(CCNC(=O)CNCC(c2ccccc2)N(C)C)cc1OC (stereo not drawn)	-0.4%
6%	-11%	1	CCc1c(C)sc2nc3c(C(=O)N4CCOCC4)cc(C(=O)c4ccccc4O)cn3c(=O)c12	?
-4%	-10%	-9	CC1(C)Oc2ccc(C(=O)NC3CCCC3)cc2N(CC(=O)N2CCOCC2)C1=O	1.7%
-5%	21%	.	CC(=O)Nc1ccc(Oc2ccc3c(c2)C(=O)NC3=O)cc1	0.5%
-1%	-2%	-5	O=C(NC1CCCCC1)c1cccc(Cn2cc(Cl)cn2)c1	3.5%
-4%	-4%	-3	CCN(C(=O)CSc1n[nH]c(-c2cccs2)n1)C1CCS(=O)(=O)C1 (stereo not drawn)	-1.5%
-3%	8%	.	COC(=O)CC(c1ccccc1F)N1Cc2ccccc2C1=O (stereo not drawn)	1.6%
-17%	8%	.	O=S(=O)(c1ccsc1)N1CC=C(c2ccccc2)CC1	5.4%
-19%	-13%	3	COc1ccc(N/C=C/C(=O)c2ccc(Oc3ncccn3)cc2)cc1	0.7%
-5%	28%	-5	CCOC(=O)Cc1csc(NC(=O)C2C3C=CC(C3)C2C(=O)O)n1 (stereo not drawn)	0.2%
27%	6%	-19	CCOc1ccc(-c2nc(CSCC(=O)NCc3ccco3)c(C)o2)cc1	0.1%
-43%	-3%	5	CCn1c(C)nc2cc(C(=O)NNC(=S)Nc3ccc(C)cc3)ccc21	-1.1%
-5%	-4%	-9	CCC(C)NC(=O)CSc1nc2ccccc2c(=O)n1Cc1ccc(OC)cc1 (stereo not drawn)	-3.7%
-7%	9%	5	Cc1ccc(C2CC(C(F)(F)F)n3nc(C(=O)NCCN4CCOCC4)cc3N2)cc1 (stereo not drawn)	4.1%
-5%	3%	3	CCOCCCNC(=O)CCCOc1ccccc1	1.4%
-62%	1%	-2	Cc1ccc(NC(=O)c2ccc(OC(=O)COc3ccc(Cl)cc3C)cc2)cc1	-0.1%
.	2%	.	COc1ccccc1C(=O)NCCC(=O)NNC(=O)c1ccccc1O	-3.1%
-4%	25%	2	O=C(c1ccc(F)cc1)N1C2CCC1CC(O)(c1ccc(F)cc1)C2 (stereo not drawn)	-3.2%
-31%	10%	-4	C/C(=N\NC(=O)c1cccc(C)c1)c1cccc(NC(=O)c2ccco2)c1	-0.8%
7%	-7%	-6	CC1CC(C)CN(CCOCCSc2ccc(Cl)cc2)C1 (stereo not drawn)	1.9%
-12%	-9%	-15	CCOc1ccc(-n2nc3c(=O)[nH]nc(C)c3c2C)cc1	2.1%
2%	22%	2	Cc1cnnn1-c1cccc([N+](=O)[O-])c1	-1.4%

Limited to Rango release inh (5 entries from above):
Structure | Rango release inh
C/C(=N\NC(=O)c1cccc(C)c1)c1cccc(NC(=O)c2ccco2)c1 | 10%
CC1CC(C)CN(CCOCCSc2ccc(Cl)cc2)C1 (stereo not drawn) | -7%
CCOc1ccc(-n2nc3c(=O)[nH]nc(C)c3c2C)cc1 | -9%
O=C(c1ccc(F)cc1)N1C2CCC1CC(O)(c1ccc(F)cc1)C2 (stereo not drawn) | 25%
Cc1cnnn1-c1cccc([N+](=O)[O-])c1 | 22%

An excerpt; the hit share may differ from the screen's.
